Source: PubChem (ICCB-Longwood Screening Facility, Harvard Medical School)
Mtb MbtI inh: inhibitors of Mycobacterium tuberculosis siderophore enzyme MbtI; P9WFX0; purified MbtI enzyme, fluorescence intensity read-out; inhibition, %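 (about 17 µg/mL by stock and volumes)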; 100,000 tested, 0.89% active;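 active = above 50% in both replicates, above 80% if mildly self-fluorescent; inactive = the rest, strongly fluorescent compounds included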;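 note: 0% = mean of negative and 100% = mean of positive controls; one replicate is shown; some compounds called inactive have numbers as strong as hits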
Target sequence (P9WFX0 whole entry, looked up): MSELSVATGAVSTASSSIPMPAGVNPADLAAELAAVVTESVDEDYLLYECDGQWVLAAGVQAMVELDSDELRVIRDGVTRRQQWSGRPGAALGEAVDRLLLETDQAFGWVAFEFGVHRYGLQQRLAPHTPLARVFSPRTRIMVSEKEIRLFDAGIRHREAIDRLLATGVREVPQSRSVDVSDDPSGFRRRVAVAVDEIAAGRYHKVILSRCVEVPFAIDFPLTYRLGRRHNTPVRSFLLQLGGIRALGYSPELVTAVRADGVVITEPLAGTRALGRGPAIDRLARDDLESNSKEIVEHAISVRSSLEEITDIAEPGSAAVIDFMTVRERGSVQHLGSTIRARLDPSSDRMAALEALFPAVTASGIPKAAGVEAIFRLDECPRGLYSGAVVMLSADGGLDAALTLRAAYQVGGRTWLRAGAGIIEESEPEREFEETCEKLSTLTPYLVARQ
Polio RdRp inh: inhibitors of poliovirus RNA polymerase binding and polymerization. P03300. AID 588519. % elongation, % (compound at 16.7 µg/mL). 150,000 tested, 0.66% active. poliovirus polymerase elongation, fluorescence polarization; active compounds read low; in the data active = % elongation below about 90%; note: some results filed as inactive read as strong as hits
Target sequence (P03300 1749-2209 limits assumed): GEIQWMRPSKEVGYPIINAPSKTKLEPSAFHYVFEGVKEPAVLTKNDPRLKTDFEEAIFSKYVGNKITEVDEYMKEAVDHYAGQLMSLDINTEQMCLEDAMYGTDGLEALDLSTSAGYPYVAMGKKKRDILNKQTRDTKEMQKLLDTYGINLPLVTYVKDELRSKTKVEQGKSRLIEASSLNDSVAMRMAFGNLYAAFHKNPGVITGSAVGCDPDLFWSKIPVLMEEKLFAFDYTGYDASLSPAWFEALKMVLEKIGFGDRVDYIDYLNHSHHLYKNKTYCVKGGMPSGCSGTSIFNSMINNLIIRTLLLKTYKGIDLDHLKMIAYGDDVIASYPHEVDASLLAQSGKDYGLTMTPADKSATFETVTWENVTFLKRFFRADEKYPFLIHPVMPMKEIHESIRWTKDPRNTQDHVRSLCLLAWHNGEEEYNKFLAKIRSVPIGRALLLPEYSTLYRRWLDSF
Mtb MenB inh: Mtb MenB enzyme inhibition. P9WNP5. 100,000 tested, 0.43% active. MenB enzyme assay, absorbance read-out; some hits fall short of the stated cut. inhibition, %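 (about 12 µg/mL by stock and volumes)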;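 active = mean of two replicates above 30%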;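 note: 0% = no compound and 100% = wells with inactive enzyme; the first replicate is given; strong numbers were not always called active; inactives centre near -10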
Polio RdRp inh intensity: further read-out of Polio RdRp inh, marked with its call; % elongation; measured here: total intensity read-out; formula for this scale not given here;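 total fluorescence in place of polarization; lower means less elongation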
Starred values were filed as active, the others as inactive; . = no result given; & = joins results of further samples. An unsorted share of the library; 2% or so of the library scored in one or more.

SMILES | Mtb MbtI inh | Polio RdRp inh | Polio RdRp inh intensity | Mtb MenB inh
CCOC(=O)N1CCN(C2=Nc3cccc4cccc2c34)CC1 | 0 | 110 | 143 | -83
NC(=O)c1ccc(NC(=O)c2cn(-c3ccccc3)nc2-c2cccs2)cc1 | 145 | 100 | 101 | .
CC1CCCN(S(=O)(=O)c2ccc3[nH]c(=O)cc(C(=O)NCCCN4CCCCC4C)c3c2)C1 (stereo unspecified) | -16 | 103 | 105 | 4
O=C(CN1C(=O)c2cccnc2Oc2ccc(Cl)cc21)N1CCCCC1 | -11 | 100 | 103 | 0
Cc1ccc(S(=O)(=O)/N=C/c2ccco2)cc1 | 9 | 100 | 100 | -30
COc1ccc(NC(=O)CSc2nc(NS(=O)(=O)c3ccccc3)cc(=O)[nH]2)cc1 | -4 | 104 | 100 | -1
Nc1c(N2CCN(c3ccccc3)CC2)c2ccccc2oc1=O | . | 105 | 92 | -25
CNC(=S)NCCN1CCOCC1 | -5 | 100 | 102 | 0
Cc1ccccc1S(=O)(=O)Nc1nc2ccccc2nc1Nc1ccc(S(=O)(=O)N2CCOCC2)cc1 | -51 | 100 | 104 | -15
COc1ccc2cc(C(C)C(=O)N3CCC(C(N)=O)CC3)ccc2c1 (stereo unspecified) | 2 | 102 | 99 | -18
c1ccc2c(c1)CCN(c1ncnc3sccc13)C2 | 36 | 101 | 102 | -85
O=C(Cn1cnc2c(cnn2CCO)c1=O)N1CCOCC1 | 0 | 104 | 103 | 2
CCc1ccc(OCCCC(=O)NCc2ccco2)cc1 | . | 105 | 103 | -8
O=C(OCC(=O)N1CCCCC1)c1ccc(NS(=O)(=O)c2ccc3c(c2)OCCO3)cc1 | 7 | 100 | 106 | -19
Nc1ccc(S(=O)(=O)Nc2cnc3ccccc3n2)cc1 | 5 | 97 | 100 | 1
CS(=O)(=O)N1CCc2cc(C(=O)CSc3nnc4ccccn34)ccc21 | 10 | 105 | 125 | -8
CCCSc1nnc(NC(=O)c2nn(-c3cccc(C)c3)ccc2=O)s1 | -4 | 104 | 101 | 3
COc1cccc(C(=O)Nc2ccc3c(c2)COC3=O)c1 | 8 | 102 | 103 | 15
CCOc1ccc2c(c1)sc(=NC(=O)c1ccc(S(=O)(=O)N3CCc4ccccc43)cc1)n2C | -10 | 104 | 104 | -2
CN(C)CCN(Cc1cccs1)c1ccccn1 | -21 | 102&100 | 101&101 | 4&3
CC(=O)N1CCC(N(C(=O)Nc2cccc(C)c2)C2CCCC2)CC1 | -15 | 101 | 102 | -33
COc1ccc(OCC2CCNCC2)cc1 | -6 | 106 | 102 | -8
CCOC(=O)c1c(NC=O)sc(C)c1C | 0 | 97 | 100 | -1
CNCC(O)c1ccc(OC(=O)C(C)(C)C)c(OC(=O)C(C)(C)C)c1 (stereo unspecified) | -14 | 103 | 98 | 17
CCc1ccc2c(CSc3nccn3C)cc(=O)oc2c1 | 20 | 100 | 95 | 7
Cc1cc(I)ccc1-n1[nH]c(C(F)(F)F)cc1=O | 37 | 101 | 97 | -26
CC(C)N1CC(C(=O)Nc2ccccc2)CC1=O (stereo unspecified) | -1 | 102 | 102 | -48
Cc1nc(SCC(=O)N2CCNC2=O)n(C2CCCCC2)c1C | 10 | 102 | 97 | -3
CNc1ccccc1C(C)(C)c1ccnn1-c1ccccc1 | 1 | 102 | 98 | .
COc1ccc(Cn2c(=O)[nH]c3ncccc3c2=O)cc1 | -11 | 104 | 103 | -17
Cc1oc(-c2ccc(C(=O)NCc3ccccc3)cc2)nc1CS(=O)c1ccccc1 (stereo unspecified) | 38 | 101 | 101 | -13
O=C1Nc2ccccc2C(=O)N2CCCC12 (stereo unspecified) | -11 | 101 | 102 | -4
O=C1NCCN1CCNS(=O)(=O)c1cc(C(F)(F)F)cc(C(F)(F)F)c1 | -5 | 103 | 110 | 2
c1ccc(C2(c3ccccc3)OCC(Cn3cncn3)O2)cc1 (stereo unspecified) | 18 | 100 | 98 | 6
Cn1c(SCCC(=O)Nc2ccccc2)nnc1-c1cc2ccccc2o1 | -17 | 101 | 100 | 10
Cc1ccc(-c2nn(-c3ccccc3)cc2C=C2C(=O)NC(=O)NC2=O)o1 | . | 96 | 119 | -19
CCCCn1c(=S)[nH]c2cc(Cl)ccc2c1=O | 12 | 102 | 96 | 18
Ic1cccc2c1N1CCN2CC1 | 2 | 101 | 101 | -10
Cc1ccc(C(C)C)c(OCC(=O)NC2CCN(C)CC2)c1 | -4 | 99 | 102 | 8
CCc1ccc(S(=O)(=O)Nc2ccc3oc(=O)sc3c2)cc1 | 6 | 99 | 105 | -3
CC(=O)Nc1ccc(N=C2C(=O)N(CCC(C)C)c3ccccc32)cc1 | 18 | 98 | 107 | -41
NC(=O)CN1C(=O)Cc2ccccc21 | -16 | 101 | 103 | 4
CCOC(=O)c1cnn2c1nc(N1CCOCC1)c1ccccc12 | 18 | 101 | 104 | -6
O=C(NCC1CCCC(CNC(=O)N2CCc3ccccc32)C1)N1CCc2ccccc21 (stereo unspecified) | 9 | 100 | 102 | 2
CO/C1=C\C(C)=C\[C@@H](C)[C@@H](O)[C@H](C)C/C(C)=C/C=C/[C@H](OC)[C@@H]([C@@H](C)[C@@H](O)[C@H](C)[C@H]2C[C@@H](O)[C@H](C)[C@@H](C(C)C)O2)OC1=O | -28 | 102&100 | 102&102 | -21

Seven neighbouring compounds already listed, for reference:
SMILES | Mtb MbtI inh | Polio RdRp inh | Polio RdRp inh intensity | Mtb MenB inh
Cc1oc(-c2ccc(C(=O)NCc3ccccc3)cc2)nc1CS(=O)c1ccccc1 (stereo unspecified) | 38 | 101 | 101 | -13
O=C1Nc2ccccc2C(=O)N2CCCC12 (stereo unspecified) | -11 | 101 | 102 | -4
O=C1NCCN1CCNS(=O)(=O)c1cc(C(F)(F)F)cc(C(F)(F)F)c1 | -5 | 103 | 110 | 2
c1ccc(C2(c3ccccc3)OCC(Cn3cncn3)O2)cc1 (stereo unspecified) | 18 | 100 | 98 | 6
Cn1c(SCCC(=O)Nc2ccccc2)nnc1-c1cc2ccccc2o1 | -17 | 101 | 100 | 10
Cc1ccc(-c2nn(-c3ccccc3)cc2C=C2C(=O)NC(=O)NC2=O)o1 | . | 96 | 119 | -19
CCCCn1c(=S)[nH]c2cc(Cl)ccc2c1=O | 12 | 102 | 96 | 18

Going on with the list:
SMILES | Mtb MbtI inh | Polio RdRp inh | Polio RdRp inh intensity | Mtb MenB inh
CC(=O)Nc1nc2nc(C)cc(C)n2[n+]1-c1ccccc1 | -4 | 101 | 103 | .
CCOC(=O)c1cnn(CCOC(=O)c2ccccc2F)c1NC(=O)c1ccccc1F | -14 | 103 | 105 | -5
Cc1cc(=O)[nH]n1C | 0 | 103 | 102 | -24
C=CCNC(=O)C1CCCN(S(=O)(=O)c2cc(Cl)ccc2OC)C1 (stereo unspecified) | -10 | 102 | 101 | -2
Nn1c(Nc2ccc(Cl)cc2)nncc1=O | 5 | 102 | 101 | -4
CCN1CCN(c2nnc(-c3cccs3)c3ccccc23)CC1 | -2 | 100 | 102 | 0
CCN(CC)S(=O)(=O)c1ccc(Cl)nc1 | -5 | 102 | 100 | .
c1ccc(N=Nc2ccccc2)cc1 | -2 | 102 | 99 | -6
CC(C(=O)Nc1ccc(Cl)cc1Cl)N1CCCN(c2ccc(C(F)(F)F)cn2)CC1 (stereo unspecified) | -13 | 105 | 106 | 0
O=C(O)c1ccc(-c2cccc(C(F)(F)F)c2)o1 | 0 | 99 | 98 | -14
COCC(C)n1c(SCc2ccccc2C#N)nc2ccccc2c1=O (stereo unspecified) | 10 | 100 | 99 | -35
O=C(Nc1ccc2c(c1)nc1n2CCN(c2ccccc2)C1)c1ccccc1 | 6 | 95 | 94 | -1
CCOC(=O)/C(C#N)=C/Nc1nc(C)cs1 | -9 | 51 | 262 | -34
CSc1cccc(NC(=S)Nc2cc3c(c(N)c2C)C(C)(C)CC3(C)C)c1 | -7 | 102 | 111 | -41
O=C(COC(=O)C1CCCCC1)Nc1ccc(I)cc1 | -2 | 102 | 105 | .
COc1ccccc1OCC(O)CNCc1ccc2c(c1)OCO2 (stereo unspecified) | -12 | 102 | 104 | -10
Cc1cc2ccccc2n1-c1ccc(C(=O)N2CCC(C(=O)N3CCN(C)CC3)CC2)s1 | -9 | 102 | 101 | -36
CCCN(CC(=O)Nc1cc(C)on1)CC(=O)Nc1ccc(F)c(F)c1F | 4 | 99 | 104 | 2
CCCCN(c1ccccc1)S(=O)(=O)c1cccc2cccnc12 | 6 | 102 | 99 | -12
N#Cc1ccc(-c2ccccc2)nc1SCC(=O)c1ccccc1 | . | 106 | 112 | -2
Cc1ccc(NC(=O)C2CC(=O)NC3=C2C(=O)CC(C)(C)C3)cc1C (stereo unspecified) | 0 | 99 | 101 | -8
O=C1CN(C(=S)Nc2ccc(F)cc2)CCN1 | -3 | 105 | 105 | 4
CC(=O)Nc1ccc(SCC(=O)N2CCCCC2C)cc1 (stereo unspecified) | 8 | 104 | 104 | -6
CCc1ccc(NC(=S)NN(C)C)cc1 | -4 | 103 | 104 | 5
COc1ccc(-c2nc3ccccn3c2NCc2ccc3c(c2)OCO3)cc1 | 44 | 102 | 105 | 10
COC(=O)c1ccc(C)c(NC(=O)c2ccc3c(c2)CC(C)N3S(C)(=O)=O)c1 (stereo unspecified) | 6 | 103 | 101 | -12
COC(=O)c1cn(-c2ccccc2)nc1C(=O)c1ccccc1 | -4 | 103 | 105 | .
Cc1noc2ncnc(N3CCCCC3)c12 | 17 | 102 | 97 | -44
CC(C)(C)NCC(=O)Nc1ccccc1-c1ccccc1 | -3 | 101 | 109 | 7
O=C(Nc1ccccc1)C1Cc2ccccc2CN1S(=O)(=O)c1ccc(F)cc1 (stereo unspecified) | -10 | 104 | 104 | -2
COc1ccc(-c2cn(-c3ccccc3)c3[n+]2CCS3)cc1 | -7 | 99 | 101 | -6
O=c1[nH]nc(COc2ccccc2)c2nnn(Cc3ccccc3)c12 | -16 | 100 | 103 | 4
Cc1ccc(S(=O)(=O)NC(=O)OCCn2ncc3ccccc3c2=O)cc1 | -9 | 103 | 102 | -7
CCOC(=O)CSc1ccccn1 | 82* | 101 | 103 | -4
O=C(O)CSc1nc2ccccc2c2nc3ccccc3n12 | 27 | 104 | 111 | -2
CC1Cc2ccccc2N1C1=CC(=O)CCC1 (stereo unspecified) | 6 | 104 | 98 | .
C(=N\n1cnnc1)/c1ccc(N2CCOCC2)s1 | 9 | 106 | 108 | -340
COc1ccc(-c2noc(N3CCCC3)n2)cc1OC | -6 | 103 | 106 | -63
O=C(Cc1nnc(-c2ccc(Br)cc2)o1)NC1CCCCCC1 | -3 | 103 | 104 | -23
CC(C)OC(=O)c1cn(CCC#N)nc1-c1ccccc1 | -5 | 104 | 102 | -14
CC(CN(C)Cc1ccccc1)OC(=O)C1COc2ccccc2O1 (stereo unspecified) | -2 | 101 | 102 | -11
O=C(N=C1N=c2ccccc2=N1)c1ccc2c(O)n(Cc3ccncc3)c(O)c2c1 | -4 | 100 | 104 | -17
OC1CCN(Cc2ccc[nH]2)CC1 | 1 | 96 | 95 | -40
COC(=O)Cn1c(=O)c(C(=O)CSc2nnc(C)c(=O)n2N)c(N)n(Cc2ccccc2)c1=O | -3 | 108 | 109 | -26
O=C(O)COCC(=O)Nc1ccc(N2CCOCC2)nc1N1CCOCC1 | 0 | 100 | 104 | -10
C=CCN(C(C)=O)c1nc(C)c(Br)c(OC)n1 | -10 | 102 | 107 | -13
CCC(C(=O)N1CCN(c2ccccn2)CC1)c1ccccc1 (stereo unspecified) | 88 | 103 | 103 | -22
O=C(C1CCN(c2ccc(-c3cccs3)nn2)CC1)N1CCc2ccccc21 | -17 | 99 | 100 | -5
CCS(=O)(=O)CCSc1nc2ccccc2o1 | 8 | 103 | 99 | -22
O=C(OCc1cc(=O)n2cc(Br)ccc2n1)C1=COCCO1 | 15 | 109 | 116 | -19
O=c1cc(-c2ccccc2)nc(SCc2nc(-c3cccs3)no2)[nH]1 | 14 | 102 | 103 | -29
O=C(CSc1ccc2c(c1)OCCO2)NCc1ccco1 | 10 | 101 | 105 | -43
O=C(Nc1ccc2c(c1)OCO2)Nc1cnn(Cc2ccc(Br)cc2)c1 | -7 | 101 | 98 | -38
CC(C)c1ccc(C2C3CN(C(C)C)CC=C3C(C#N)=C(N)C2(C#N)C#N)cc1 (stereo unspecified) | 14 | 101 | 114 | 5
O=c1oc(-c2cc3ccccc3o2)nc2sc3c(c12)CCCC3 | -11 | 102 | 104 | -8
C=C(C)CSc1n[nH]c(=S)s1 | 100 | 96 | 94 | 4
O=S(=O)(NC1CC1)c1ccc2ccccc2c1 | 4 | 101 | 103 | -10
Cc1ccc(NC(=O)c2cnc3sccn3c2=O)cc1 | 42 | 109 | 109 | -5
COc1cc(OC)c2c(c1Cl)O[C@]1(C2=O)C(OC)CC(=O)C[C@H]1C (stereo partly specified) | -14 | 104 | 101 | -5

Entries of single compounds as entered above.
O=C(CSc1ccc2c(c1)OCCO2)NCc1ccco1 is listed as Mtb MbtI inh = 10; Polio RdRp inh = 101; Polio RdRp inh intensity = 105; Mtb MenB inh = -43
C=CCN(C(C)=O)c1nc(C)c(Br)c(OC)n1 is listed as Mtb MbtI inh = -10; Polio RdRp inh = 102; Polio RdRp inh intensity = 107; Mtb MenB inh = -13
Cc1ccc(NC(=O)c2cnc3sccn3c2=O)cc1 is listed as Mtb MbtI inh = 42; Polio RdRp inh = 109; Polio RdRp inh intensity = 109; Mtb MenB inh = -5
